# Bioassay records (PubChem)
# PMP22 txn = Cell-based coincidence reporter assay to measure PMP22 gene transcription in S16 Pmp22-F2sN cells - Primary screen; S16 Pmp22-F2sN Schwann cells (luciferase reporters placed in the Pmp22 gene), FLuc/NLuc coincidence luminescence, 24 h; Potency, µM (highest dose often 57.5 µM), without a hit: at the highest dose activity change, negative = inhibition, hits mostly inhibitors; 43,000 compounds, 2% hits; AID 1508649, 2021; active = clear falling dose curves in both reporters; inconclusive = both reporters move, but less clearly or upward; inactive = either reporter flat; the % is the NLuc reporter signal; further: on the % scale 0 is the no-effect control and ±100 the full control effect; some results filed as inactive show a strong effect at the top dose
#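 Luminescent read-out of sequential FLuc and NLuc signals from a reporter embedded in the Pmp22 3' UTR of S16 Schwann cells, taken after 24 h compound exposure at 37C; compounds reducing both signals score as inhibitors of expression.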
# HTT prom inh = Primary qHTS for Identification of Small Molecule Inhibitors of Huntingtin Promoter Activity; HEK293 HTT promoter firefly luciferase reporter (activity 0% = vehicle and -100% = no light), 24 h; Potency, µM (doses to about 57.5 µM), for the others: top-dose activity change, negative = inhibition, actives largely listed as inhibitors; 48,000 compounds, 0.93% hits; AID 1508623, 2021; active means well fitted inhibition curve with a large enough effect; inconclusive means small, poorly fitted or top-dose-only effect; inactive means no such curve, though single readings can be large or run the other way; further: nearly all actives have a fitted effect of over 50% in size
#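 Quantitative HTS used concentration series of up to 57.5 uM final on HEK293 luciferase reporter cells, 24 h at 37 degrees C. Readout was Dual-Glo firefly luminescence.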
# Numbers without * were called inactive; ? = inconclusive; · = no result given; [ ] = dose if it differs, or a comment. Potency means the concentration at half of the fitted maximal effect.
compound,HTT prom inh,PMP22 txn
Cc1ccccc1CNC(=O)c1ccccc1NC(=O)c1nsc2ccccc12,21.4%,?
Cc1ccc(NC(=O)CSc2ccc(-c3cccs3)nn2)cc1Cl,-7.0%,-8.8%
Cc1cccc(NC(=O)c2ccc(-c3nc(CSc4ccccc4)c(C)o3)cc2)c1C,?,?
Cc1ccc(-c2nc(S(=O)(=O)c3ccc(C)cc3)c(N3CCN(c4ccccc4)CC3)o2)cc1,-10.7%,-7.4%
Cc1ccc(Cn2c(CO)cnc2SCC(=O)Nc2ccc(C)c(Cl)c2)cc1,-23.7%,-4.1%
CCOC(=O)c1c(Nc2cccc(C(=O)OC)c2)nnc(-c2ccccc2)c1-c1ccccc1,?,?
COc1ccccc1CNC(=O)CSCc1nc(-c2ccc(OC)c(OC)c2)oc1C,-20.2%,-11.5%
Cc1ccc(S(=O)(=O)c2nnn(-c3ccc(F)c(Cl)c3)c2N)cc1,?,-15.5%
CCOC(=O)c1[nH]c2c(c1Cc1ccccc1)C(=O)CC(c1ccc(C(C)(C)C)cc1)C2 (centres undefined),?,-39.7%
COc1ccccc1Nc1ncc(C(=O)Nc2ccc(OC)c(OC)c2)c2ccccc12,-9.9%,-25.5%
CN1CC(=O)N(CC(=O)Nc2cccc(C#N)c2)c2ccccc2C1=O,16.7%,-1.0%
CCc1ccccc1NC(=O)c1c(NC(=O)c2ccccc2)sc2c1CCCC2,19.2%,-16.2%
O=C(Cn1ccc2cc(S(=O)(=O)N3CCCCCC3)ccc21)NCCc1ccccc1Cl,?,-20.7%
COc1ccccc1NC(=O)c1cc(S(=O)(=O)N2CCc3ccccc32)ccc1F,-28.4%,-3.5%
Cc1ccc(C(=O)c2oc3ccccc3c2NC(=O)c2cc(-c3ccccc3)on2)cc1,7.0%,-4.2%
CCC(=O)N1CCc2cc(Br)cc(S(=O)(=O)CCC(=O)N(CC)Cc3ccccc3)c21,-16.1%,?
CCCCCn1c(=O)[nH]c2cc(C(=O)NCc3ccc(F)cc3)ccc2c1=O,-2.8%,-16.4%
CCOc1ccc(NC(=O)C(=O)NCCc2csc(-c3ccc(C(F)(F)F)cc3)n2)cc1,-1.8%,-17.7%
CC(C)(C)c1ccc(C(=O)Nc2ccc(C(=O)OCc3cc(=O)n4ccsc4n3)cc2)cc1,?,?
CCc1ccc(NC(=O)C2CCCN(c3nn4cc(-c5ccc(OC)cc5)nc4s3)C2)cc1 (centres undefined),?,-86.0%
COc1ccccc1-c1c(C)nn2c(-c3ccccc3)cc(-c3ccccc3)nc12,-14.8%,28.0%
CC(C)CCNc1nc2c(-c3ccccc3)nnn2c2ccccc12,-10.2%,0.3%
CCOc1ccc(NCc2cccn2-c2nnc(N3CCC(C(=O)NC(C)c4ccccc4)CC3)s2)cc1 (centres undefined),?,?
Cc1cc([N+](=O)[O-])ccc1NC(c1nnc(-c2ccccc2)o1)c1ccccc1F (centres undefined),-11.1%,2.4%
Nc1c(C(=O)Nc2ccc(C(=O)O)cc2)sc2nc3c(cc12)CCCC3,?,10.7%
NC(=NCCCCCCN=C(N)/N=C(\N)Nc1ccc(Cl)cc1)/N=C(\N)Nc1ccc(Cl)cc1,?,·
Cc1cccc(N2CCN(C(=O)c3sc4nc5n(c(=O)c4c3C)CCC5)CC2C)c1 (centres undefined),-12.8%,-17.3%
CCc1ccc(NC(=O)Cn2c(=O)n(CCCC(=O)NCc3ccc4c(c3)OCO4)c(=O)c3ccccc32)cc1,-12.2%,?
CCOc1ccc(-n2c(=O)c3sc4ccccc4c3n(Cc3cccc(C)c3)c2=O)cc1,-20.3%,-1.7%
COc1ccccc1CNc1ncnc2c1c(-c1ccccc1)cn2-c1ccc(Br)cc1,-23.8%,-9.2%

# Later entries:
compound,HTT prom inh,PMP22 txn
COc1ccc(CNC(=O)CC(C)n2nc(C)cc2C)cc1 (centres undefined),0.8%,-9.2%
Cc1ccc2c(c1)c1c(c(=O)n(-c3cccc(Cl)c3)c(=O)n1CC(=O)N1CCCC1)n2C,-10.3%,-10.2%
Cc1ccc(S(=O)(=O)N2CCCC2C(=O)Nc2ccc(Br)cc2)cc1 (centres undefined),31.6µM*,?
O=C(Nc1cccc(C(F)(F)F)c1)c1cc(CN2CCOCC2)on1,-12.6%,6.5%
O=C(NCc1ccc(F)cc1)c1ccc2c(c1)N(Cc1c(F)cccc1Cl)C(=O)CS2,?,-33.2%
COc1ccc(NC(=O)CSc2ncc3c(n2)-c2ccccc2N(C)S3(=O)=O)cc1Cl,?,?
COCCn1c(=N)c(C(=O)NC(C)c2ccccc2)cc2c(=O)n3cc(C)ccc3nc21 (centres undefined),-0.7%,-18.3%
O=C(CSc1nc2ccccc2nc1Cc1ccc(Cl)cc1)NCCc1ccccc1,-6.1%,2.2%
O=C(Cn1cnc2ccccc2c1=O)NCCC(=O)Nc1ccc(F)cc1,12.2%[11.5 µM],3.0%
Cc1ccc(-c2nnc(Nc3ccc(Br)cc3)c3ccccc23)cc1S(=O)(=O)NCC1CCCO1 (centres undefined),-24.8%,?
CCC(=O)N1c2ccc(S(=O)(=O)CCC(=O)NCc3ccccc3OC)cc2CC1C (centres undefined),6.5%,-4.7%
Cc1ccc(NC(=O)CSc2nc(C)cc(C)c2C(=O)Nc2cccc(C)c2)cc1,?,-26.2%
Cc1cc(-c2ccc(C)c(S(=O)(=O)NCCc3ccc(S(N)(=O)=O)cc3)c2)on1,-19.3%,-13.3%
O=C(NCc1ccccc1)c1ccc(NC(=O)c2nsc3ccccc23)cc1,?,-25.4%
COc1ccc(CCN2CCC(CNC(=O)c3cnn(-c4ccc(C)cc4)c3C3CCN(C(=O)OC(C)(C)C)CC3)CC2)cc1,-9.1%,?
O=C(CC1N=C2c3ccccc3N=C(SCc3cccc(F)c3)N2C1=O)NCc1ccc2c(c1)OCO2 (centres undefined),?,-12.2%
Cc1nc2cccnc2n1-c1cccc(C(=O)NCc2ccc(OC(C)C)cc2)c1,?,?
Cc1ccc(S(=O)(=O)c2nc(-c3cccc(Cl)c3)oc2NCc2ccccc2)cc1,-29.3%,-20.8%
COc1cc2c(cc1NC(=O)COc1ccc(Cl)cc1)oc1ccccc12,-6.9%,?
COc1ccc(N(CC(=O)N2CCN(c3cccc(Cl)c3)CC2)S(=O)(=O)c2c(C)noc2C)cc1,?,-24.9%
Cc1ccccc1C(=O)Nc1ccccc1C(=O)OCc1cc(=O)n2ccsc2n1,-5.6%,-12.6%
CCN(CC)c1ccc(NC(=O)CCc2c(C)nc3ncnn3c2C)c(C)c1,-12.9%,-4.6%
Cc1ccc(NC(=O)C(Cc2ccccc2)NS(=O)(=O)c2ccc3c(c2)c(=O)n(C)c(=O)n3C)c(C)c1 (centres undefined),-4.8%,-7.2%
COc1ccc(N2CC(C(=O)NCCS(=O)(=O)N3CCN(c4ccccc4)CC3)CC2=O)cc1 (centres undefined),-4.1%,5.3%
O=C(O)c1ccc(Cn2cnc3cccnc32)cc1,-15.2%,-9.2%
CCOc1ccc(NC(=O)c2c(NC(=O)c3cccs3)sc3c2CCC(C(C)(C)C)C3)cc1 (centres undefined),-6.3%,?
N#Cc1c[nH]n2c(NC3CCCC3)c(-c3ccc(Br)cc3)nc12,-28.6%,?
CCc1ccccc1NC(=O)c1cc(-c2ccc(Cl)s2)nc2ccccc12,-20.7%,?
CSc1cccc(NC(=O)c2ccc3c(c2)CCCN3S(C)(=O)=O)c1,-27.8%,?
Cc1cccc(NC(=O)CCN2CCN(c3ccccc3F)CC2)c1,-11.6%,-35.0%

# The list goes on:
compound,HTT prom inh,PMP22 txn
CCOc1ccc(C2c3cc(OCC)c(OCC)cc3CC(=O)N2c2ccc(C(=O)O)cc2)cc1OCC (centres undefined),-17.9%,-5.5%
CCCCN1CC(c2nc3ccccc3n2CCCCOc2ccc(C)cc2C)CC1=O (centres undefined),?,?
Cc1ccc(C)c(Cn2c(=O)n(CCCCC(=O)NCc3ccccc3Cl)c(=O)c3ccccc32)c1,2.2%,?
Cc1c(Cl)cccc1NC(=O)Cn1c(CCC(=O)O)ccc1-c1cccs1,?,-20.4%
O=C(Nc1ccccc1Br)c1cc(CN2CCCC2)on1,31.4%[activator],-5.0%
COCCCN1C(=O)c2[nH]nc(-c3ccccc3O)c2C1c1ccc(OCc2ccccc2)cc1 (centres undefined),?,?
COc1ccc(CCNC(=O)C(=O)NCC(c2ccco2)S(=O)(=O)c2cccs2)cc1OC (centres undefined),-16.9%,-18.1%
Cc1cc(C)c2c(=O)cc(CSCC(=O)Nc3ccccc3Cl)[nH]c2c1,-2.5%,2.4%
COc1ccc2c(c1)c1c(c(=O)n(-c3ccc(C)cc3)c(=O)n1CC(=O)N1CCCC1)n2C,-16.9%,-3.3%
CCc1ccc(S(=O)(=O)N2CCN(c3ccc(Cl)c(Cl)c3)CC2)cc1,-24.5%,10.7%
CCc1cccc(NC(=O)CSc2nc3ccccc3nc2N2CCCCC2)c1,-27.8%,-17.1%
CO[C@H]1O[C@@H]2O[C@@]3(C)CC[C@@H]4[C@@H](C)CC[C@@H]([C@H]1C)[C@@]24OO3,?,·
Cc1ccc(Cl)cc1-n1ncc2c(NCCc3ccccc3)ncnc21,-14.2%,?
O=C(CN1C(=O)C2(SCC(=O)N2c2ccc(F)cc2)c2ccccc21)NCCc1ccccc1 (centres undefined),-10.6%,-15.6%
CSc1nc2sc3c(c2c(=O)n1-c1ccc(C)c(Cl)c1)CCN(C(C)=O)C3,-10.1%,-13.7%
CCOC(=O)c1[nH]c2c(c1Cc1ccccc1OC)C(=O)CC(c1ccccc1)C2 (centres undefined),?,?
Clc1cccc(N2CCN(c3nc4ccccc4c4nc(-c5cccnc5)nn34)CC2)c1,1.9%,19.6%
CCOc1nc(NC(=O)NS(=O)(=O)Oc2ccccc2Cl)nc(-c2ccccc2)n1,49.9%[activator],-8.5%
Cc1noc2ncnc(NCc3ccccc3Cl)c12,?,?
COc1cc(C(=O)Nc2ccccc2OCc2cc(=O)n3c(C)csc3n2)cc(OC)c1OC,-3.1%,-13.0%
CCOc1ccc(NC(=O)c2c(NC(=O)c3ccco3)sc3c2CCC(C(C)(C)C)C3)cc1 (centres undefined),-4.0%,?
CCCCC(CC)CNC(=O)CCCCCn1c(=O)[nH]c2ccsc2c1=O (centres undefined),-29.1%,?
CCN(C(=O)CCS(=O)(=O)c1cc(Br)cc2c1N(C(=O)C1CC1)CC2)c1cccc(C)c1,-5.9%,-16.6%
COC(=O)c1cc2occc2n1Cc1nc(-c2ccccc2C)oc1C,-5.2%,-3.5%
Cc1cccc(-c2nc(C)c(CCNC(=O)C(=O)Nc3c(C)cc(C)cc3C)s2)c1,-9.6%,-61.5%
CCc1ccc(NC(=O)CCCc2nnc3n(C(C)CC)c(=O)c4sccc4n23)cc1 (centres undefined),-20.1%,3.6%
COc1ccc(-n2c(=O)c3c4c(sc3n(Cc3ccccc3)c2=O)CCC4)c(OC)c1,-27.5%,-2.3%
O=C(NCc1cccnc1)C(=O)NCC(c1cccnc1)N1CCN(c2ccc(F)cc2)CC1 (centres undefined),?,?
COc1ccc2[nH]cc(CCNC(=O)c3cnn(-c4ccccc4Cl)c3C3CCN(C(=O)OC(C)(C)C)CC3)c2c1,?,?
Cc1cc(C)cc(NC(=O)C(Cc2ccccc2)N2Cc3ccccc3C2=O)c1 (centres undefined),-19.4%,14.2%

# Taken from above:
# Value of COC(=O)c1cc2occc2n1Cc1nc(-c2ccccc2C)oc1C in PMP22 txn: -3.5%
# Value of CCc1ccc(S(=O)(=O)N2CCN(c3ccc(Cl)c(Cl)c3)CC2)cc1 in PMP22 txn: 10.7%

# The list goes on.
compound,HTT prom inh,PMP22 txn
COC(=O)c1cccc(Nc2c(-c3ccc(OC)cc3)nc3nc[nH]n23)c1,25.6%,-176.8%
Cc1nn2c(C)c(C(=O)NC(C)c3ccccc3)cnc2c1-c1ccc(F)cc1 (centres undefined),-14.8%,-5.7%
O=C(O)c1cccc(NC(=O)c2cccc(S(=O)(=O)Nc3cccc(C(=O)O)c3)c2)c1,-3.2%,-23.9%
Cc1cc(C)c(S(=O)(=O)Nc2cc(-c3cn4ccccc4n3)ccc2C)cc1C,?,?
CN(C(=O)Cn1nc(Cc2cccnc2)c2ccccc2c1=O)c1cccc(C(F)(F)F)c1,-12.7%,-14.7%
CCc1nn2c(=O)cc(COc3ccc(/C=C(\C#N)C(=O)Nc4ccc(F)cc4)cc3OC)nc2s1,2.3%,-2.9%
Cc1ccc(NC(=O)CSc2nc3c([nH]c4ccccc43)c(=O)n2-c2ccccc2)c(C)c1,-11.7%,?

# Sorted by the number under HTT prom inh (highest first): 3 of the compounds above.
Compound | HTT prom inh
COC(=O)c1cccc(Nc2c(-c3ccc(OC)cc3)nc3nc[nH]n23)c1 | 25.6%
Cc1cc(C)c2c(=O)cc(CSCC(=O)Nc3ccccc3Cl)[nH]c2c1 | -2.5%
Cc1ccc(S(=O)(=O)c2nc(-c3cccc(Cl)c3)oc2NCc2ccccc2)cc1 | -29.3%
